# Source: PubChem
# MITF inhib: MITF inhibition; inhibition, % (test concentration not listed); AID 2240; actives 0.28% (n = 37,000); TRPM1 promoter luciferase, luminescence, 24 h;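 active means most replicates at 85% or more, or half of them and the mean; inconclusive means half reach 85% but not the mean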;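 further: human melanocyte line stably carrying TRPM1 promoter luciferase reporter; 0% = vehicle wells and 100% = a positive control; the first replicate is given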
# Active calls of the source: *; ? = inconclusive. A portion of the library. The share of hits here may be higher or lower than overall.
SMILES,MITF inhib
CCn1c(SCC(=O)Nc2cc(C)c(Cl)cc2OC)nnc1-c1cccs1,11
COc1ccc(NC(=O)CC(c2ccccc2)c2ccco2)cc1 (stereo not given),5
CC(Oc1ccc(Cl)cc1Cl)C(=O)Nc1cc(Cl)ccc1C(=O)O (stereo not given),13
O=C(CSc1nnnn1-c1ccc(Cl)cc1)Nc1cccc2ccccc12,21
CC(C)(C)c1ccc(OCC(=O)Nc2cccc3ncccc23)cc1,-37
CC(Sc1nc(N)cc(=O)[nH]1)C(=O)Nc1ccc(Cl)cc1 (stereo not given),5
CC(=O)c1cccc(N(CC(=O)Nc2ccc(F)cc2F)S(C)(=O)=O)c1,-46
COc1ccc(NC(=O)C2CCCCC2C(=O)O)cc1 (stereo not given),-15
CCOc1ccc(Cl)cc1S(=O)(=O)n1cnc2ccccc21,33
O=C(NCCOc1nc(N2CCOCC2)nc(N2CCOCC2)n1)Nc1ccc(Cl)cc1,-5
COc1cccc2cc(C(=O)C3C(=O)C(=O)N(c4nc(C)c(C)s4)C3c3ccco3)oc12 (stereo not given),7
O=C(CSc1ncnc2scc(-c3ccc(Cl)cc3)c12)Nc1ccc2c(c1)OCCO2,5
O=C1CC(c2cccs2)Cc2nc(NCCN3CCOCC3)ncc21 (stereo not given),-11
COc1ccccc1CCNC(=O)c1cc(-c2ccccn2)nc2c(C)c(Cl)ccc12,16
Cc1nnc(SCCN2C(=O)c3ccccc3C2=O)[nH]c1=O,-29

# Reprinted from the part before: two entries, followed by the next part.
SMILES,MITF inhib
COc1ccccc1CCNC(=O)c1cc(-c2ccccn2)nc2c(C)c(Cl)ccc12,16
Cc1nnc(SCCN2C(=O)c3ccccc3C2=O)[nH]c1=O,-29
COC(=O)c1cc(OC)c(OC)cc1NC(=O)COc1cc(C)c(Br)c(C)c1,-21
COc1ccccc1C(=O)N1CCN(c2ccc([N+](=O)[O-])c(NCc3cccnc3)c2)CC1,13
COc1ccc(NC(=O)CN2CCC(C(N)=O)(N3CCCCC3)CC2)c(OC)c1,-5
COc1cccc(C2C(C(=O)c3cccs3)C(=O)C(=O)N2CCN2CCOCC2)c1 (stereo not given),-7
Fc1ccccc1-c1nnc(SCc2nc3ccccc3[nH]2)n1-c1ccccc1,14
O=C(CN1C(=O)c2ccccc2S1(=O)=O)NCC1CCCO1 (stereo not given),-10
O=C(COc1ccc(I)cc1)NCc1ccco1,-46
CCOC(=O)c1ccc(CNC(=O)c2n[nH]c(=O)c3ccccc23)o1,-10
NC(=O)c1c(NC(=O)C(Cc2ccccc2)N2C(=O)c3ccccc3C2=O)sc2c1CCCC2 (stereo not given),-15
O=C(NCCCN1CCCC1=O)c1cc(-c2ccncc2)nc2ccc(Br)cc12,-14
Cc1cc(Cl)c(S(=O)(=O)Nc2ccc(I)cc2)cc1OCC(N)=O,0
N#CCCN(Cc1ccco1)C(=S)Nc1ccccc1,-20
C[C@@H]1CN([C@H](C)CO)C(=O)Cc2cc(NC(=O)c3ccncc3)ccc2O[C@@H]1CN(C)S(C)(=O)=O,-1
O=C(CN1C(=O)c2ccc([N+](=O)[O-])cc2C1=O)Nc1ccccc1-c1ccccc1,-20
COc1ccc2sc(SCc3nc(N)nc(Nc4cccc(C)c4C)n3)nc2c1,14
COC(=O)c1cc(NC(=O)CC2Sc3ccccc3NC2=O)cc(C(=O)OC)c1 (stereo not given),6
COC(=O)c1cc(-c2ccccc2)sc1NC(=S)NCc1ccccn1,-10
COc1ccc(S(=O)(=O)N(C)CC(=O)NC2CC2)cc1C,-1
CCNc1nc(SCC(=O)Nc2ccc(Cl)c(Cl)c2)nc(N(C)C)n1,9
CCOC(=O)c1c(NC(=O)Cn2nc(C)c([N+](=O)[O-])c2C)sc2c1CCCC2,-16
COc1cc(C(=O)NC(C(=O)O)C(C)C)cc(OC)c1OC (stereo not given),-6
CC(=O)Nc1ccc(NC(=O)Cn2ccc([N+](=O)[O-])n2)cc1,17
CCOc1cccc2c(C)nc(Nc3nc4c(c(=O)[nH]3)CCCC4)nc12,37
O=C(Cn1c(NCCO)nc2ccccc21)c1ccccc1,-5
COc1cc(-c2nnc(SCC(N)=O)n2C)cc(OC)c1OC,-5
O=C(CCCN1C(=O)c2ccccc2C1=O)Nc1ccc(Cl)cc1,-5
O=C(CN1CCOCC1)Nc1ccccc1[N+](=O)[O-],-11
Cc1ccc(NC(=O)Cn2nc([N+](=O)[O-])cc2C)cc1,-10
Cc1ccc(C(=O)Nc2ccc(Br)cc2)cc1S(=O)(=O)Nc1ccccn1,-6
Cc1ccc(S(=O)(=O)N(C)CC(=O)Nc2ccc(Br)cc2F)cc1,-2
COc1cccc(CN2CCN(C(=O)c3cc(-c4ccccn4)nc4ccc(Cl)cc34)CC2)c1,26
O=C(CSc1nc2ncccc2[nH]1)Nc1ccccc1F,-9
O=C(COc1ccccc1[N+](=O)[O-])Nc1ccccc1N1CCN(C(=O)c2ccccc2)CC1,-4
COc1cccc2c(=O)c(CCC(=O)O)c(C)[nH]c12,8
CC(Oc1ccc2c(=O)c(-c3ccc(Cl)cc3)c(C(F)(F)F)oc2c1)C(=O)O (stereo not given),-18
Cc1ccc(NC(=O)CN(c2ccc(Cl)c(C(F)(F)F)c2)S(C)(=O)=O)cc1Cl,1
O=C(CSc1n[nH]c(-c2ccco2)n1)c1c[nH]c2ccccc12,24
COC(=O)c1ccc(OCC(=O)Nc2cc(OC)ccc2OC)c(OC)c1,9
Cc1onc(-c2c(F)cccc2Cl)c1C(=O)Nc1cccc(Cn2cccn2)c1,-3
COc1ccc(NC(=O)CN(c2cc(Cl)c(Cl)cc2Cl)S(C)(=O)=O)c(OC)c1,7
CCn1c2ccccc2c2cc(NC(=O)CN(C)S(=O)(=O)c3ccccc3)ccc21,28
c1csc(-c2nn3c(Cn4cnc5ccccc54)nnc3s2)c1,12
Cc1nn(CC(O)Cn2cnc3c2c(=O)n(C)c(=O)n3C)c(C)c1Br (stereo not given),5
CN(C)CCNC(=O)c1cc(-c2cccnc2)nc2c(Cl)cccc12,-10
COc1ccc(Cl)cc1N(CC(=O)Nc1cc(Cl)ccc1Cl)S(C)(=O)=O,6
CC(=O)c1cccc(NC(=O)C(C)N2C(=O)c3ccccc3C2=O)c1 (stereo not given),-7
Cc1sc2nc(SCc3n[nH]c(=S)n3-c3ccccc3)[nH]c(=O)c2c1C,-28
O=C(Oc1c(CN2CCOCC2)cc(Cl)c2cccnc12)c1ccc(F)cc1,53
Cc1ccc(O)c(NC(=S)NC(=O)c2ccc(-c3ccccc3[N+](=O)[O-])o2)c1,-8
O=C(OCc1cccc(C(=O)c2ccccc2)c1)c1ccc(NC(=O)c2ccco2)cc1,-22
CCc1ccc(NC(=O)CSc2nc(-c3ccc(OC)cc3)cc(=O)[nH]2)cc1,-15
COc1ccc(NC(=O)CSc2nc3ccccc3n2-c2ccccc2)c([N+](=O)[O-])c1,-2
COc1ccc([N+](=O)[O-])cc1NC(=O)CSc1nncn1C,-23
CC(=O)Nc1nc2ccccc2n1CCN1CCOCC1,-10
Cc1nnc(SCC(=O)Nc2cccc([N+](=O)[O-])c2)s1,-4
COc1cc2c(cc1NC(=O)COc1ccc([N+](=O)[O-])cc1)oc1ccccc12,18
O=C(O)COc1ccc(NC(=O)c2ccc(NC(=O)c3ccco3)cc2)cc1,-6
CC(=O)Nc1ccc(S(=O)(=O)NC2(C(F)(F)F)C(=O)N(c3ccc(C(C)C)cc3)C(C)=C2C(C)=O)cc1 (stereo not given),-11
O=C(c1cccc(S(=O)(=O)N2CCOCC2)c1)N(Cc1ccccc1)c1ccccn1,-17
COc1ccc(C2C(C#N)=C(N)Oc3n[nH]c(-c4ccccc4)c32)cc1CSc1ccccn1 (stereo not given),-1
# Next section.
SMILES,MITF inhib
CC(=O)c1ccc(OC(=O)C(CCS(C)(=O)=O)N2C(=O)c3ccccc3C2=O)cc1 (stereo not given),-3
Cc1ccc(SC(C)C(=O)Nc2cccc(N(C)S(C)(=O)=O)c2)cc1 (stereo not given),7
Cc1cc(C)c(S(=O)(=O)N2CCN(c3ccc([N+](=O)[O-])c(NCc4ccco4)c3)CC2)c(C)c1,0
CCOC(=O)c1ccc(NC(=O)Cn2nc([N+](=O)[O-])c(Br)c2C)cc1,-13
O=C(NCC1CCCO1)c1ccc(Cl)c(S(=O)(=O)Nc2ccccc2)c1 (stereo not given),16
O=C1C(=O)N(CCCN2CCOCC2)C(c2ccc(F)cc2)C1C(=O)c1cc2ccccc2o1 (stereo not given),23
COc1ccc(C(C)=O)cc1CSc1nnc(-c2cccc(Br)c2)n1-c1ccccc1,1
COc1ccc(C(=O)CSc2nc3cc(C)c(C)cc3[nH]2)cc1OC,21
COc1ccc(OC)c(NC(=O)COc2ccc(C(=O)Nc3ccc(Cl)cc3)cc2)c1,4
Cc1n[nH]c(C)c1SCC(=O)Nc1ccc(F)cc1,3
Cc1ccc(-c2csc3ncn(CC(=O)Nc4cc(Cl)ccc4Cl)c(=O)c23)cc1,11
CC(C(=O)Nc1cccc(C(F)(F)F)c1)N(c1ccc(Cl)cc1)S(C)(=O)=O (stereo not given),16
COc1ccc(Cl)cc1NC(=O)CN(c1cccc(F)c1)S(C)(=O)=O,1
Cc1ccc(-n2c(SCC(=O)Nc3ccccc3C)nc3nc4c(cc3c2=O)COC(C)(C)C4)cc1,-8
Cc1cccnc1NC(=S)Nc1ccc(S(N)(=O)=O)cc1,-71
COC(=O)CNC(=O)c1cn(-c2ccccc2)nc1-c1ccc(F)cc1,-41
COc1ccc(OC)c(NC(=O)Cc2coc3cc(C)cc(C)c23)c1,5
O=C(O)Cn1nnnc1-c1ccc(F)cc1,-5
O=C(NCCc1nc2ccccc2[nH]1)c1cccc(Cl)c1,28
CC1(C)NC(=O)N(CC(=O)Nc2ccc(Br)cc2)C1=O,-8
O=C(CSc1nc2nc3c(cc2c(=O)n1-c1ccccc1)CCCC3)Nc1ccc(Cl)cc1,2
CCn1cnc2cc(NCc3cccc(OC)c3O)ccc21,-49
O=C(NCCN1CCOCC1)C1COc2ccccc2O1 (stereo not given),-6
CC(C)(C)c1cc(C(=O)CSc2nc3ccccc3[nH]2)cc(C(C)(C)C)c1O,?
COC(=O)CSc1nnc(-c2ccc(Cl)cc2)n1-c1ccc(Br)cc1,3
O=C(CN1CCN(S(=O)(=O)c2cccc([N+](=O)[O-])c2)CC1)Nc1cc(Cl)ccc1Cl,9
COc1ccc(NC(=O)c2ccccc2OCC(=O)Nc2cccc(C)c2C)c(C)c1,-20
O=C(O)CCNC(=O)c1cncc(Br)c1,-15
NC(=O)CS(=O)(=O)c1nc2ccccc2n1Cc1ccccc1F,26
Cc1c(Br)ccc(NC(=O)CSc2nnnn2-c2ccccc2)c1C,6
Cc1ccc(NC(=O)C(C)NS(=O)(=O)c2ccc(Cl)cc2)cc1Cl (stereo not given),17
CC(C)CNC(=O)C(=O)NCc1ccccn1,-8
COc1ccc(Cl)cc1NC(=O)COc1ccccc1OC,-41
O=C(CCN1C(=O)c2ccccc2C1=O)Nc1ccccc1C(=O)N1CCOCC1,-21
COc1ccc(F)cc1S(=O)(=O)N1CCCN(S(=O)(=O)c2cc(F)ccc2OC)CC1,7
CCC(=O)NC(c1cccc([N+](=O)[O-])c1)c1c(O)ccc2ccccc12 (stereo not given),1
Cc1c(C(=O)C2C(=O)C(=O)N(Cc3cccnc3)C2c2ccccn2)cnn1-c1ccccc1 (stereo not given),-9
Cc1cc(Br)ccc1NC(=O)Cn1nc(C)c([N+](=O)[O-])c1C,1
Cc1cccc(Nc2ncnc(N)c2[N+](=O)[O-])n1,-37
Cc1nnc(SCC(=O)NC2CC2)n1-c1ccccc1,-19
Cc1ccc(NC(=O)CCN2C(=O)c3ccccc3C2=O)cc1[N+](=O)[O-],-28
COc1ccccc1NC(=O)C1CC(=O)n2c(nc3ccccc32)N1 (stereo not given),-8
CC(=O)Nc1ccc(C(=O)CSc2nc(-c3ccccc3)cs2)cc1,-94
COc1ccc(NC(=O)COc2ccccc2Cl)c([N+](=O)[O-])c1,-59
COc1ccc(N(Cc2cc3cccc(C)c3[nH]c2=O)S(C)(=O)=O)cc1,26
CC(C)(O)C#Cc1ccccc1C(=O)NC(CC(=O)O)c1ccccc1 (stereo not given),-34
COc1ccc(C)cc1NC(=O)c1ccc(OCC(=O)Nc2cccc(C(F)(F)F)c2)cc1,-13
Cc1cccc(C)c1OCC(=O)NCc1cccnc1,-1
O=C(Nc1ccccc1C(=O)NCCN1CCOCC1)c1cccc([N+](=O)[O-])c1,-12
COc1ccc(NC(=O)CSc2nc(C(C)(C)C)cs2)cc1,-12
COc1ccc(-c2nnc(SCC(N)=O)n2-c2ccccc2)cc1,-5

# Filtered by structure: the entries above containing an NH in an aromatic ring
SMILES,MITF inhib
CC(Sc1nc(N)cc(=O)[nH]1)C(=O)Nc1ccc(Cl)cc1 (stereo not given),5
Cc1nnc(SCCN2C(=O)c3ccccc3C2=O)[nH]c1=O,-29
Fc1ccccc1-c1nnc(SCc2nc3ccccc3[nH]2)n1-c1ccccc1,14
CCOC(=O)c1ccc(CNC(=O)c2n[nH]c(=O)c3ccccc23)o1,-10
CCOc1cccc2c(C)nc(Nc3nc4c(c(=O)[nH]3)CCCC4)nc12,37
O=C(CSc1nc2ncccc2[nH]1)Nc1ccccc1F,-9
COc1cccc2c(=O)c(CCC(=O)O)c(C)[nH]c12,8
O=C(CSc1n[nH]c(-c2ccco2)n1)c1c[nH]c2ccccc12,24
Cc1sc2nc(SCc3n[nH]c(=S)n3-c3ccccc3)[nH]c(=O)c2c1C,-28
CCc1ccc(NC(=O)CSc2nc(-c3ccc(OC)cc3)cc(=O)[nH]2)cc1,-15
COc1ccc(C2C(C#N)=C(N)Oc3n[nH]c(-c4ccccc4)c32)cc1CSc1ccccn1 (stereo not given),-1
COc1ccc(C(=O)CSc2nc3cc(C)c(C)cc3[nH]2)cc1OC,21
Cc1n[nH]c(C)c1SCC(=O)Nc1ccc(F)cc1,3
O=C(NCCc1nc2ccccc2[nH]1)c1cccc(Cl)c1,28
CC(C)(C)c1cc(C(=O)CSc2nc3ccccc3[nH]2)cc(C(C)(C)C)c1O,?
COc1ccc(N(Cc2cc3cccc(C)c3[nH]c2=O)S(C)(=O)=O)cc1,26
